Cruzain inh noDet: blocks cruzain activity in detergent-free assay | P25779 | purified cruzain, Z-FR-AMC fluorescence, no detergent | Potency, µM, without a hit: max response, negative = inhibition, actives largely listed as inhibitors | 2.3% of 200,000 active;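 also: plate controls were enzyme without inhibitor for no effect and buffer without enzyme for full effect; nearly all actives have a fitted effect of over 40% in size; top concentration of the series not given in the record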
Target sequence (P25779 123-467 limits assumed): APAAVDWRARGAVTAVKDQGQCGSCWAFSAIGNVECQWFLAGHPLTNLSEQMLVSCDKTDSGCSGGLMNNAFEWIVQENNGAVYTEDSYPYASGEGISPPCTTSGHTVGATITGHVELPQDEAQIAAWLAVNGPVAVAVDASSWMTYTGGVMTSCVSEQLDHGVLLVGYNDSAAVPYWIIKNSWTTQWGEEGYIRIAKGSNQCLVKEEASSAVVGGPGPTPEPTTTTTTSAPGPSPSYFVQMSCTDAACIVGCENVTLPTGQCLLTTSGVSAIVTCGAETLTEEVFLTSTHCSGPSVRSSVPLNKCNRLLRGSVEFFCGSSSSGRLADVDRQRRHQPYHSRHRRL
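Detergent-free condition (0.00005% Triton X-100) in acetate buffer pH 5.5 with DTT. 1.5 nM enzyme and compound were pre-mixed 15 min, then 2 uM Z-FR-AMC substrate added; reaction progress from fluorescence change between first and third reads (60 s).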
NS1 function inh: inhibitors of influenza NS1 protein function; Potency, µM (highest dose often 46.1 µM), for the others: at the top dose activity, positive = more growth; S. cerevisiae slowed by influenza A NS1, growth recovery by OD600; 0.4% of 270,000 active; active means well fitted rising curve with a large enough effect; inconclusive means small, poorly fitted or top-dose-only effect; inactive means no such curve, though single readings can be large or run the other way; also: nearly all actives have a fitted effect of over 50% in size
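Compounds were scored for reversing the slow growth caused by influenza A NS1 in S. cerevisiae, measured by optical density at 600 nm. Assay medium contained 2% galactose at pH 6.0; NS1-free yeast of the same strain were the positive control.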
LASV entry inh: Lassa virus entry inhibition. Lassa virus pseudotype entry inhibition, cell reporter; control for the full effect not named in the record. Potency, µM (series often up to 37.9 µM), without a hit: top-dose activity change, negative = inhibition, hits mostly inhibitors. 1.2% of 300,000 active. AID 540256; active means well fitted inhibition curve with a large enough effect; inconclusive means small, poorly fitted or top-dose-only effect, or effect the other way; inactive means flat fitted curve, though single readings scatter; tested in HEK293 cells; also: % is scaled to controls: 0 for no effect and ±100 for the full control effect; nearly all actives have a fitted effect of over 50% in size; luciferase read-out
2A StopGo: FMDV 2A StopGo reporter, luciferase signal. AID 1159524. Potency, µM (titrated, usually from 57.9 µM), without a hit: top-dose signal change, negative = less light. human cells with a luciferase reporter of 2A StopGo recoding; control for the full effect not named in the record. 1.2% of 410,000 active; active = well fitted falling curve with a large enough effect; inconclusive = small, poorly fitted or top-dose-only effect; inactive = no such curve, though single readings can be large or run the other way; tested in HEK293T cells; also: % is scaled to controls: 0 for no effect and ±100 for the full control effect; nearly all actives have a fitted effect of over 45% in size; luciferase light after 4 h
Cruzain inh Det: blocks cruzain activity in presence of Triton detergent | purified cruzain, Z-FR-AMC fluorescence, 0.01% Triton | Potency, µM, for inactives: max response, negative = inhibition, most hits filed as inhibitors | AID 1478 | 0.43% of 200,000 active;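 also: plate controls were neutral wells for no effect and buffer without enzyme for full effect; nearly all actives have a fitted effect of over 40% in size; top concentration of the series not given in the record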
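Steps: dispense cruzain (1.5 nM final) in acetate buffer pH 5.5 with DTT and 0.01% Triton X-100; pin-transfer compounds; incubate 15 min RT; add Z-FR-AMC (2 uM final); read fluorescence every 30 s, using the 60 s intensity change.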
SARS PLpro yeast: inhibitors of SARS-CoV papain-like protease in yeast. S. cerevisiae expressing SARS-CoV PLpro, growth rescue; control for the full effect not named in the record. Potency, µM (top dose mostly 32.9 µM), for inactives: at the highest dose activity, positive = growth rescue. 0.19% of 330,000 active. AID 485353; active means well fitted rising curve with a large enough effect; inconclusive means small, poorly fitted or top-dose-only effect; inactive means no such curve, though single readings can be large or run the other way; also: 0% is about no effect; nearly all actives have a fitted effect of over 55% in size; growth read by luminescence after 48 h
RE007 growth inh: less growth of the S. pombe RE007 Vpr strain | S. pombe RE007 Vpr strain, BacTiter-Glo ATP luminescence, 24 h; control for the full effect not named in the record | Potency, µM (top dose mostly 92.2 µM), for the others: top-dose activity change, negative = less growth | 0.21% of 360,000 active | AID 651644; active = well fitted falling curve with a large enough effect; inconclusive = small, poorly fitted or top-dose-only effect; inactive = no such curve, though single readings can be large or run the other way;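 also: % is scaled to controls: 0 for no effect and ±100 for the full control effect; nearly all actives have a fitted effect of over 50% in size; the assay follows cell death caused by Vpr and the record does not say whether a fall means rescue or toxicity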
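Fission yeast RE007 carrying one integrated HIV-1 vpr copy, seeded at OD 0.01 in PMG+AL medium with 23 nL pinned compound. Grown 24 h at 30 degrees; viability read by BacTiter-Glo luminescence after 5 min.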
MARV entry inh: blocks Marburg virus binding to or entry into cells; Marburg virus pseudotyped entry inhibition, cell reporter; control for the full effect not named in the record; about a third of the inactives were read at about 46 µM; 1.8% of 300,000 active; Potency, µM (titrated, usually from 37.8 µM), for inactives: top-dose activity change, negative = inhibition, most hits filed as inhibitors; active = well fitted inhibition curve with a large enough effect; inconclusive = small, poorly fitted or top-dose-only effect, or effect the other way; inactive = flat fitted curve, though single readings scatter; tested in HEK293 cells; about a fifth of its hits are not listed in these tables; also: % is scaled to controls: 0 for no effect and ±100 for the full control effect; luciferase read-out
Numbers without * were called inactive; ? = inconclusive; nt = not tested or not shown; [ ] = dose if it differs, or a comment. Unless noted, calls follow the shape of the dose curve; as a rule, active = well fitted curve in the direction sought with a large enough effect; inconclusive = small, poorly fitted or top-dose-only effect, or another doubt; inactive = no such curve, though single readings can be large; an effect the other way counts as inactive or inconclusive. Potency is read from the fitted curve at half-maximal effect.

SMILES	Cruzain inh noDet	NS1 function inh	LASV entry inh	2A StopGo	Cruzain inh Det	SARS PLpro yeast	RE007 growth inh	MARV entry inh
CCCc1nc(N2CCOCC2)c2sc(=S)n(-c3ccccc3)c2n1	-2%	-21%	nt	nt	4.6%	13%	nt	nt
Cc1cccc(N2CCN(C(=O)c3ccc4c(c3)CCN4S(C)(=O)=O)CC2)c1C	nt	-6%	nt	3%	nt	0%	4%	nt
C/C(=N\N1C(=O)c2ccccc2NC1c1ccccc1)c1ccccc1O (stereo unspecified)	nt	-1%	nt	15%	nt	0%	-12%	nt
O=C(CN1CCCN(Cc2ccccc2F)S1(=O)=O)Nc1ccc(F)c(Cl)c1	14%	nt	-11%[46.1 µM]	4%	-11%	nt	nt	nt
c1csc(-c2ccc(N3CCOCC3)nn2)c1	nt	7%	nt	-12%	nt	-5%	?	nt
CCc1cc(=O)oc2cc(C)c3c(-c4ccc(F)cc4)coc3c12	-6%	nt	4%[46.1 µM]	-18%	0.2%	nt	nt	13%[46.1 µM]
Cc1cc2c3c(c1C)C1(C(=O)N3C(C)(C)CC2C)C(C#N)=C(N)Oc2n[nH]c(C)c21 (stereo unspecified)	28%	-90%	-28%	?	-4.2%	2%	8%	-28%
Cn1c(CSc2ncn[nH]2)nc2ccccc21	-9%	2%	?	-19%	0.3%	-6%	5%	1%
COc1ccc2[nH]c(CN3CCN(C(C)C)C(CCO)C3)c(C)c2c1 (stereo unspecified)	nt	3%	-11%	25%	nt	1%	-1%	-20%[46.1 µM]
CC(C)(C)n1cc(C(=O)c2ccc3ccccc3c2O)cn1	nt	nt	13µM*	16µM*	nt	-1%	-22%	4µM*
CN(C)c1ccc(NC(=O)Nc2cccc(Cl)c2)cc1	-23%	9%	-11%	14%	-4.5%	-8%	-4%	-5%
CCOC(=O)c1cnn2cc(-c3[nH]ncc3[N+](=O)[O-])cnc12	-2%	10%	-2%	20%	-3.4%	4%	0%	7%
COc1ccc(OC)c(NC(=O)C2CCCN2C(=O)NC2CCCCC2)c1 (stereo unspecified)	nt	7%	13%	6%	nt	-8%	6%	3%[46.1 µM]
CC1(c2ccccc2)NC(=O)N(Cc2ccc([N+](=O)[O-])cc2)C1=O (stereo unspecified)	0%	0%	17%	?	-5.0%	10%	1%	-11%
COc1ccc(-n2c(O)c(C=NCCN3CCN(C(C)=O)CC3)c(=O)[nH]c2=S)cc1	nt	6%	-20%[46.1 µM]	-6%	nt	1%	-4%	?
Clc1ccc(C=NN2CCCCCC2)cc1	nt	nt	?	73%[activator]	nt	nt	2%	0%
O=C(Cc1coc2cc3c(cc12)CCC3)NCC1(N2CCCCC2)CCCCC1	-7%	10%	4%	-16%	-3.8%	5%	-4%	?
CCc1ccc(NC(=S)Nc2ccc3[nH]c(=O)[nH]c3c2)cc1	nt	-5%	-5%	25%	nt	0%	-8%	12%
COc1ccccc1C(=O)Oc1ccc2ccc(=O)oc2c1	nt	-69%	-11%[46.1 µM]	13%	nt	-48%	2%	-8%[46.1 µM]
COc1ccc(C(=O)N[C@H](C(=O)NCC2CCCCC2)C(C)C)cc1	2%	0%	-7%	34%[activator]	-3.7%	5%	14%	0%
CCc1ccccc1NC(=S)NCC1CCN(c2ccc(OC)cc2)C1 (stereo unspecified)	nt	-31%	nt	-4%	nt	0%	9%	nt
CCC1CCCCN1C(=O)CSc1nnc(-c2ccco2)o1 (stereo unspecified)	-3%	-1%	11%	37%[activator]	-4.2%	23%	-10%	-2%
COc1ccc(/C=C(/C#N)c2nc(-c3ccc(-c4ccccc4)cc3)cs2)cc1OC	0%	nt	12%[46.1 µM]	-1%	7.0%	nt	nt	nt
O=C(/C=C/c1ccco1)N1CCN(S(=O)(=O)/C=C/c2ccccc2)CC1	nt	?	2%	-14%	nt	-1%	-3%	-9%
CCCNC(=O)NS(=O)(=O)c1cnccc1Sc1ccc(Cl)c(Cl)c1	3%	13%	8%	-12%	0.8%	6%	12%	-11%[46.1 µM]

Next section.
SMILES	Cruzain inh noDet	NS1 function inh	LASV entry inh	2A StopGo	Cruzain inh Det	SARS PLpro yeast	RE007 growth inh	MARV entry inh
Cc1ccccc1NC(=O)c1ccccc1NC(=O)c1cccs1	nt	-12%	5%	3%	nt	-2%	1%	20%[46.1 µM]
CCc1nnc(NC(=O)c2ccc(S(=O)(=O)N3CCOCC3)cc2)s1	-8%	-6%	nt	-24%	-4.2%	-6%	-1%	nt
CCCOC(=O)c1cccc(NC(=O)c2c(-c3ccccc3Cl)noc2C)c1	2%	nt	?	-28%	-6.0%	nt	nt	nt
COc1nccnc1NS(=O)(=O)c1ccc(N=Cc2c(C)[nH]n(-c3ccccc3)c2=O)cc1	18%	7%	8%	7%	-8.3%	-38%	-23%	3%
CC(C)(C)NC(=O)c1ccc2c(c1)C(=O)N(C1CCCCC1)C2=O	3%	-6%	7%	0%	0.2%	-1%	-4%	13%
NC(=O)CC(c1ccccc1)c1ccc2c(c1)OCO2 (stereo unspecified)	nt	3%	17%	-20%	nt	0%	-6%	-2%
Cc1nnc(C)n1-c1ccc(C(=O)Nc2cccc(Br)c2)cc1	13%	nt	-16%[46.1 µM]	-22%	-2.2%	nt	nt	nt
Cc1cccc(C)c1NC(=O)CCSCCc1ccccn1	-3%	nt	20%[46.1 µM]	-20%	0.6%	nt	nt	nt
Cc1ccc2c(=O)cc(C(=O)Nc3ccc(S(=O)(=O)N4CCCC(C)C4)cc3)oc2c1C (stereo unspecified)	-12%	nt	3%[46.1 µM]	0%	-0.2%	nt	nt	-9%[46.1 µM]
Oc1[nH]c2ccccc2c1N=Nc1ccc(F)cc1	-6%	8%	18%	44%[activator]	-2.8%	-22%	-13%	?
O=C(CSc1nnnn1-c1cccc2ccccc12)N1CCOCC1	-2%	-19%	-7%	-12%	1.6%	-11%	-2%	-8%
COc1ccc(Cl)cc1-c1nc(SCC(=O)NC(C)C(C)C)n[nH]1 (stereo unspecified)	nt	nt	8%[46.1 µM]	-15%	nt	-3%	42%	2%[46.1 µM]
O=C(CSc1ccccn1)N1CCNC1=O	nt	nt	?	23%	nt	-1%	2%	17%
COCCNC(=S)NNC(=O)c1cccs1	nt	4%	19%[46.1 µM]	0%	nt	0%	1%	10%[46.1 µM]
CC(OC(=O)c1cccc([N+](=O)[O-])c1)C(=O)NCc1ccc2c(c1)OCO2 (stereo unspecified)	nt	-4%	nt	-19%	nt	-5%	12%	nt
O=c1[nH]c(-c2ccc(O)cc2)nc2scc(-c3cccs3)c12	nt	3%	nt	5%	nt	-2%	-3%	nt
CC(=O)Nc1ccc(S(=O)(=O)NCC(=O)NNC(=O)COc2ccccc2Cl)cc1	nt	nt	1%	-19%	nt	-1%	7%	2%[46.1 µM]
CC(C)C(NC(=O)C1(NC(=O)OCc2ccccc2)CCCC1)C(=O)O (stereo unspecified)	nt	nt	20%	-11%	nt	nt	-14%	12%
CCC(C)n1c(O)c(C=Nc2cccc(C(F)(F)F)c2)c(=O)[nH]c1=S (stereo unspecified)	-3%	6%	2%	0%	-10%	6%	6%	5%
CC(C)c1ccc(/C=C/C(=O)NC(=S)NN2CCOCC2)cc1	nt	?	nt	-5%	nt	18%	-4%	nt
COc1ccc(C2c3c(oc4ccc(F)cc4c3=O)C(=O)N2Cc2ccc3c(c2)OCO3)cc1 (stereo unspecified)	10%	nt	0%[46.1 µM]	60%[activator]	0.4%	nt	nt	-2%[46.1 µM]
Cc1ccc2c(c1)cc(CN(Cc1ccco1)C(=O)N1CCOCC1)c1nnnn12	nt	-5%	?	4%	nt	0%	2%	?
Cc1oc(-c2ccccc2Cl)nc1CS(=O)(=O)CC(=O)NCCc1ccccc1	nt	-19%	nt	-25%	nt	?	15%	nt
CCn1cc(C(=O)N2CCN(Cc3ccc4c(c3)OCO4)CC2)c(=O)c2ccc(C)nc21	-11%	4%	-2%	-13%	0.0%	-6%	3%	-4%
CC#CC(=O)NC1CCCN(C2Cc3ccccc3C2)C1 (stereo unspecified)	nt	5%	nt	3%	nt	-6%	-5%	nt

Continued:
SMILES	Cruzain inh noDet	NS1 function inh	LASV entry inh	2A StopGo	Cruzain inh Det	SARS PLpro yeast	RE007 growth inh	MARV entry inh
COc1cccc(C(=O)Nc2ccc(S(=O)(=O)N3CCCCC3)cc2)c1OC	nt	-9%	-16%	-3%	nt	-3%	6%	-4%
CCOC(=O)c1ccc(NC(=O)CCc2c(C)nc3c(-c4ccc(F)cc4)c(C)nn3c2C)cc1	2%	nt	12%[46.1 µM]	-4%	-0.9%	nt	nt	0%[46.1 µM]
CCC(O)C(C)(C)C (stereo unspecified)	1%	nt	nt	-19%	1.2%	-12%	-18%	nt
COc1ccc(-n2ncc3c2CC(C)(C)CC3NC(=O)C2=CC(=O)CC(C)(C)O2)cc1 (stereo unspecified)	nt	-4%	nt	-3%	nt	-2%	19%	nt
COc1cc(CC(=O)N(c2ccccc2)c2nc(C)cs2)cc(OC)c1OC	nt	nt	0%	-17%	nt	-4%	4%	5%[46.1 µM]
CN(Cc1ccccc1)c1nc2c(S(=O)(=O)c3cccc(Cl)c3)nnn2c2ccsc12	0%	nt	6%[46.1 µM]	8%	0.4%	nt	nt	nt
CC(=O)Nc1ccc(S(=O)(=O)Nc2ccc(S(=O)(=O)Nc3ncccn3)cc2)cc1	nt	0%	-1%	6%	nt	2%	-2%	-1%[46.1 µM]
CN(CC(=O)Nc1ccc(Cl)c(Cl)c1)C1CCCCC1	nt	-5%	nt	-19%	nt	-1%	-24%	nt
COc1cccc(NC(=O)CSc2nnnn2C2CCCCC2)c1	nt	5%	-29%[46.1 µM]	-3%	nt	-1%	-7%	9%[46.1 µM]
Cc1cc(C)c(NC(=O)CSc2cn(CC(=O)N3CCOCC3)c3ccccc23)c(C)c1	?	nt	4%[46.1 µM]	41%[activator]	-3.0%	nt	nt	nt
OCCC1CN(Cc2cnn(-c3ccc(F)cc3)c2)CCN1Cc1ccsc1 (stereo unspecified)	nt	4%	3%	?	nt	0%	12%	-13%[46.1 µM]
O=C(CC12CCC(CC1)C2)NCc1ccc2c(c1)OCO2	11%	0%	10%	61%[activator]	0.5%	-4%	-10%	-1%
CCOC(=O)C(CC)n1cnc2c(nnn2-c2cccc(OC)c2)c1=O (stereo unspecified)	nt	-3%	-27%	20%	nt	2%	6%	?
COC(=O)C1=C(O)/C(=C\c2ccc(OCC(=O)Nc3ccccc3OC)cc2)N=C1C	nt	13%	nt	-20%	nt	18%	11%	nt
Cc1cc(Nc2ccc(F)cc2)n2nc(C)nc2n1	1%	-8%	nt	-8%	0.7%	-1%	4%	nt
